Compound activity (PubChem BioAssay)
INS promoter inh – TRM-6 insulin promoter activity inhibition; TRM-6 cells (human fetal islet line), insulin promoter-eGFP reporter, imaging; reporter expression induced with tamoxifen; hit rate 0.9% among 130,000; inhibition, % at 2 µM; AID 1273;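 active = inhibition above the mean plus 3 SD, with well images judged a real hit on visual review, cut at about 60% in these data, passing the limit was not always enough; inconclusive = inhibition over the cutoff but images rejected on review; inactive = inhibition not above the cutoff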
GALR2 agonist – activates the human galanin receptor 2. GALR2-expressing cells, agonist activation read-out. activation, %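 (tested at 5 µM)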. hit rate 0.48% among 140,000;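 active = above mean plus 3 SD of all compounds, about 5% in these data, not always enough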;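 note: 0% = vehicle buffer wells and 100% = reference agonist at full effect; tested in CHO reporter cells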
Target sequence (O43603 whole entry, looked up): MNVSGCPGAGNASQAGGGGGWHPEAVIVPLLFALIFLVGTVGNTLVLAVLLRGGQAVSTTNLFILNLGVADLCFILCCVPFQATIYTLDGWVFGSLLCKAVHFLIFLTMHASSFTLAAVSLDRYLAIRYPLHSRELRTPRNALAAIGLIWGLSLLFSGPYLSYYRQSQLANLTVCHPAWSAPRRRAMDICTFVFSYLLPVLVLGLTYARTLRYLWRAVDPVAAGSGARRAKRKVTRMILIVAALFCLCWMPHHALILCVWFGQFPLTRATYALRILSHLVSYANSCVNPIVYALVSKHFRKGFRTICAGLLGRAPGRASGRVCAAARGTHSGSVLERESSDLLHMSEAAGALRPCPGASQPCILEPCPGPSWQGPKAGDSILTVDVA
HSV replic up – HSV replication enhancement; HSV replication augmentation in cells, fold increase; maximum fold increase; hit rate 0.005% among 220,000;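 active = peak rise of 1.5-fold or more in the series; inconclusive = self-fluorescent or not available for retest; tested in PC3 cells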;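 note: first round at 10 µM; read as green reporter fluorescence; hits show the peak of a series up to 25 µM; 1 = signal of infected wells without compound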
RGS16-Gao HTS – regulators of human RGS16-Galphao interaction; O15492+P09471; bead-based flow cytometry RGS16-Galphao binding, fluorescence; actives lie on both sides; binding response (% of control), % at 10 µM; hit rate 0.38% among 220,000; AID 1441;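 active = below 25% or above 175%, edge rows of some plates excepted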;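 note: Galphao activated by GDP with aluminum fluoride before binding; 100% = wells without compound and 0% = beads without RGS; some results beyond the cut were filed as inactive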
Target sequence (O15492 whole entry, looked up): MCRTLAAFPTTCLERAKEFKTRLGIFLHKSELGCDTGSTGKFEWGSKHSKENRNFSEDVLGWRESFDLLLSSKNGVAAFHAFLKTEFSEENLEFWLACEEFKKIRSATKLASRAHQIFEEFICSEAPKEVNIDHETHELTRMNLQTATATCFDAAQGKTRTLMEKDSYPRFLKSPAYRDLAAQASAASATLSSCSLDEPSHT
Target sequence (P09471 whole entry, looked up): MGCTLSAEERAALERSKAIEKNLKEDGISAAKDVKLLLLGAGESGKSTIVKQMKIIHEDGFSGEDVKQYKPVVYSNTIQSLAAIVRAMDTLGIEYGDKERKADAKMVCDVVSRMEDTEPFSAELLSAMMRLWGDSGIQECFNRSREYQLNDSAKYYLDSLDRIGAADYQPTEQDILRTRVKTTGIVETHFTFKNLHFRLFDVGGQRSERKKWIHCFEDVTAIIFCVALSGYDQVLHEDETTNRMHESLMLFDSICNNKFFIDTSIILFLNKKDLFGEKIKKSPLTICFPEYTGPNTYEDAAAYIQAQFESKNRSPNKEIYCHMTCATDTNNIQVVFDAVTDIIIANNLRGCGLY
PKD1 inh – blocks activity of human protein kinase D1 | Q15139 | PKD1 kinase fluorescence polarization assay | inhibition, %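 (about 10 µM by stock and volumes)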 | hit rate 0.056% among 200,000 | AID 797;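 active = inhibition of 50% or more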;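 note: controls were vehicle for no effect and a reference inhibitor for full effect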
INS promoter inh cell count – also measured in INS promoter inh; calls as there; normalized cell count, %; measured here: cell count, toxicity; reference of the scale not given here;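 cells exposed to compound for 48 h; stained nuclei by imaging scaled within each plate; lower means fewer cells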
HSV replic up primary fold – also measured in HSV replic up; calls as there; fold increase; compound at 10 µM; measured here: primary screen fold increase 10 uM; tested in PC3 cells;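 GFP signal in the first replicate; 1 = infected wells without compound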
* = called active by the depositor; i = inactive; ? = inconclusive; . = no result given.

structure	INS promoter inh	PKD1 inh	RGS16-Gao HTS	HSV replic up	INS promoter inh cell count	GALR2 agonist	HSV replic up primary fold
CCOc1ccc(N=C(/C(C(=O)C(=O)N2CCOCC2)=C(/O)c2ccccc2)c2ccccc2)cc1	.	.	100.8	i	.	.	1.05
c1ccc(Cc2nnc(N3CCOCC3)c3ccccc23)cc1	-25.0	-4.3	106.1	i	124.5	-4.0	0.94
Cc1ccc(/C=C/C(=O)OCC(=O)Nc2cccc(S(=O)(=O)N(C)C)c2)o1	-38.5	-2.0	97.5	i	115.6	-1.4	0.99
S=C(NCc1ccco1)Nc1ccc(N2CCOCC2)cc1	30.0	-1.5	94.4	i	119.8	-2.0	0.96
CCCCN(CC)c1nc(N)c2c(N)nc(OCC)cc2c1C#N	23.1	-1.0	96.1	i	116.3	-0.5	1.26
c1cc2cn[nH]c2cc1NC1CCCCCC1	30.0	2.4	100.4	i	115.1	-1.5	0.75
O=C(O)CC1(CC(=O)Nc2cc(F)ccc2Cl)CCCCC1	.	.	98.4	i	.	.	1.05
CC1(C)CC(=O)C(C(c2ccc(F)cc2)C2C(=O)CC(C)(C)CC2=O)C(=O)C1	18.4	-9.6	85.1	i	120.3	-0.6	1.01
Nc1cc(Cl)nc(N/N=C/c2ccccc2[N+](=O)[O-])n1	.	10.5	32.2	i	.	-1.8	0.967
Cc1ccccc1-c1nnc(SCC(=O)Nc2ccc(Cl)cc2)n1N	29.0	-6.6	101.7	i	105.4	-1.2	0.87
CCOC(=O)c1sc(NC(=O)CSc2n[nH]c(-c3ccncc3)n2)c(C#N)c1C	41.4	-3.9	99.4	i	74.4	-0.3	1.1
Cc1ccccc1C(=O)/C(C#N)=N/Nc1c(C)n(C)n(-c2ccccc2)c1=O	-20.0	14.7	100.8	i	100.8	1.1	0.98
COc1cc(NC2c3ccccc3C(=O)N2Cc2ccccc2Cl)cc(OC)c1 (centres undefined)	.	.	103.1	i	.	.	1.02
COc1ccc(-c2noc(CCC(=O)NCc3cccnc3)n2)cc1	-25.9	-3.8	51.6	i	103.8	0.2	0.82
COc1ccc2c(c1OC)C(=O)OC2CC(=O)O (centres undefined)	-29.7	-0.6	101.3	i	108.5	-2.0	0.9
COc1cc(SC)ccc1C(=O)N1CCN(Cc2ccccc2)CC1	-11.8	12.7	95.0	i	95.6	.	1.1

Pulled by structure from the list above:
structure	INS promoter inh	PKD1 inh	RGS16-Gao HTS	HSV replic up	INS promoter inh cell count	GALR2 agonist	HSV replic up primary fold
Cc1ccccc1-c1nnc(SCC(=O)Nc2ccc(Cl)cc2)n1N	29.0	-6.6	101.7	i	105.4	-1.2	0.87
Cc1ccccc1C(=O)/C(C#N)=N/Nc1c(C)n(C)n(-c2ccccc2)c1=O	-20.0	14.7	100.8	i	100.8	1.1	0.98

(list continues)
structure	INS promoter inh	PKD1 inh	RGS16-Gao HTS	HSV replic up	INS promoter inh cell count	GALR2 agonist	HSV replic up primary fold
Cc1cc(C)c(S(=O)(=O)c2ccc(Cl)cc2C)c(Cl)n1	48.7	-1.6	94.2	i	139.1	.	0.87
S=c1[nH]nc(COc2cccc(Cl)c2)n1Cc1ccccc1	23.5	-5.4	93.5	i	153.8	.	1.04
Cn1cnc([N+](=O)[O-])c1Cl	.	.	98.3	i	.	.	0.74
O=C(C1=NN(c2ccccc2)C2C(=O)N(c3cccc(Cl)c3)C(=O)C12)c1ccccc1 (centres undefined)	-17.9	-8.1	82.4	?	95.0	-1.2	.
Cc1ccc(S(=O)(=O)NCCCC(=O)O)cc1	.	8.0	99.1	i	.	.	1.61
Cc1ccccc1CSc1nnc(-c2ccco2)n1Cc1ccco1	53.9	3.4	104.9	i	111.6	-2.0	1.3
COc1cc(NS(=O)(=O)c2ccc(NC(C)=O)cc2)ncn1	58.3	1.9	91.0	i	67.2	-1.8	1.04
O=C(O)c1cccn2c(=O)c3ccccc3nc12	.	-1.1	102.0	i	.	-2.9	0.89
CCN(CC)C(=O)Cn1cc(S(=O)(=O)CC(=O)NC2CCCCC2)c2ccccc21	-72.2	0.9	102.0	i	112.1	.	1.17
C#CC[N+](C)(C)CC#Cc1ccc(C)cc1	35.7	-1.4	110.8	i	81.0	.	0.83
Cc1cc(C)c(OCC(=O)Nc2cccc(NC(=O)c3ccco3)c2)c(Br)c1	-13.0	1.0	113.9	i	117.9	-1.7	0.91
O=C(Cc1c(F)cccc1Cl)NCCN1CCOCC1	.	0.7	107.6	i	.	.	0.99
C1CCc2nc3c(nc2C1)CCCC3	.	.	99.5	i	.	.	0.975
CCCCn1c(CN(Cc2ccccc2)Cc2ccccc2)nc2c1c(=O)n(C)c(=O)n2C	-75.0	-0.3	.	i	41.4	-4.5	1.12
CCOc1cc(NC(=S)NCC2CCCO2)c(OCC)cc1NC(=O)c1ccc(F)cc1 (centres undefined)	-42.9	0.6	93.1	i	118.1	.	0.88
C=CCc1cc(Cl)ccc1OCCOCCNC(C)CC (centres undefined)	.	-4.3	100.4	i	.	.	0.93

Reformatted: 15 of the compounds above
Every second line gives: INS promoter inh	PKD1 inh	RGS16-Gao HTS	HSV replic up	INS promoter inh cell count	GALR2 agonist	HSV replic up primary fold
S=c1[nH]nc(COc2cccc(Cl)c2)n1Cc1ccccc1
    23.5	-5.4	93.5	i	153.8	.	1.04
Cn1cnc([N+](=O)[O-])c1Cl
    .	.	98.3	i	.	.	0.74
O=C(C1=NN(c2ccccc2)C2C(=O)N(c3cccc(Cl)c3)C(=O)C12)c1ccccc1 (centres undefined)
    -17.9	-8.1	82.4	?	95.0	-1.2	.
Cc1ccc(S(=O)(=O)NCCCC(=O)O)cc1
    .	8.0	99.1	i	.	.	1.61
Cc1ccccc1CSc1nnc(-c2ccco2)n1Cc1ccco1
    53.9	3.4	104.9	i	111.6	-2.0	1.3
COc1cc(NS(=O)(=O)c2ccc(NC(C)=O)cc2)ncn1
    58.3	1.9	91.0	i	67.2	-1.8	1.04
O=C(O)c1cccn2c(=O)c3ccccc3nc12
    .	-1.1	102.0	i	.	-2.9	0.89
CCN(CC)C(=O)Cn1cc(S(=O)(=O)CC(=O)NC2CCCCC2)c2ccccc21
    -72.2	0.9	102.0	i	112.1	.	1.17
C#CC[N+](C)(C)CC#Cc1ccc(C)cc1
    35.7	-1.4	110.8	i	81.0	.	0.83
Cc1cc(C)c(OCC(=O)Nc2cccc(NC(=O)c3ccco3)c2)c(Br)c1
    -13.0	1.0	113.9	i	117.9	-1.7	0.91
O=C(Cc1c(F)cccc1Cl)NCCN1CCOCC1
    .	0.7	107.6	i	.	.	0.99
C1CCc2nc3c(nc2C1)CCCC3
    .	.	99.5	i	.	.	0.975
CCCCn1c(CN(Cc2ccccc2)Cc2ccccc2)nc2c1c(=O)n(C)c(=O)n2C
    -75.0	-0.3	.	i	41.4	-4.5	1.12
CCOc1cc(NC(=S)NCC2CCCO2)c(OCC)cc1NC(=O)c1ccc(F)cc1 (centres undefined)
    -42.9	0.6	93.1	i	118.1	.	0.88
C=CCc1cc(Cl)ccc1OCCOCCNC(C)CC (centres undefined)
    .	-4.3	100.4	i	.	.	0.93

Further entries follow:
structure	INS promoter inh	PKD1 inh	RGS16-Gao HTS	HSV replic up	INS promoter inh cell count	GALR2 agonist	HSV replic up primary fold
CCCC(=O)c1ccc(N2CCCCCC2)c(F)c1	-12.9	2.1	100.6	i	115.6	-2.4	0.94
CCOC(=O)C1CCCN(c2c(N3CCN(C)CC3)c(=O)c2=O)C1 (centres undefined)	.	8.8	110.2	i	.	-3.4	0.93
Cc1ccc(NC(=O)/C(=C\C=C\c2ccccc2)NC(=O)c2ccccc2)cc1	13.6	2.9	102.4	i	133.3	0.4	0.97
COc1ccc(CCNC(=O)CSc2nc3[nH]ncc3c(=O)n2-c2cccc(C(F)(F)F)c2)cc1OC	-100.0	-3.9	109.1	i	102.4	.	0.94
Nc1nc2ccccc2n1C(=O)CCc1ccccc1	29.7	-4.7	96.4	i	70.4	-0.1	0.77
Cc1c(C(=O)N2CCOCC2)oc2ccc(S(=O)(=O)N3CCCCCC3)cc12	.	1.0	105.0	i	.	-0.6	1.07
COc1cccc(C(=O)N2CCSC2=S)c1	-15.4	3.1	100.8	i	71.7	-1.7	0.96
C(CNC1C2CC3CC(C2)CC1C3)CN1CCOCC1 (centres undefined)	.	.	98.2	i	.	.	0.85
COc1ccccc1N(CC(=O)N/N=C(\C)c1cccc(Br)c1)S(C)(=O)=O	-28.6	-3.2	102.1	i	145.0	0.4	0.95
COc1ccc(C(=O)N/C=C/n2cnc3cc(C(F)(F)F)ccc32)cc1	.	.	97.7	i	.	.	1.04
Cc1ccc(CS(=O)(=O)CCC(=O)NCCN(C)Cc2ccccc2)cc1	-13.5	-2.4	107.5	i	77.7	-0.2	0.91
Cc1nn(-c2ccccc2)c2c1C(c1ccc([N+](=O)[O-])cc1)N1C(=N2)C(=O)Nc2ccccc21 (centres undefined)	.	5.8	102.7	i	.	-0.3	0.72
CCOc1ccccc1N(C(=O)Nc1cccc(Cl)c1)C1=NC(C)CS1 (centres undefined)	-52.0	-3.1	113.4	i	74.0	-1.0	0.96
CCOC(=O)c1sc(NC(C)=O)nc1-c1ccccc1	15.8	0.2	102.0	i	161.7	-1.6	0.88
Cc1nc(-c2ccccc2)sc1C1(C)CC(c2ccc(C#N)cc2)=NO1 (centres undefined)	.	.	103.3	i	.	.	0.98
CC(CCc1ccccc1)NC(=O)CSc1nccc(=O)[nH]1 (centres undefined)	12.9	-3.4	7.1*	i	102.4	-1.7	1
CN(C)CCOC(=O)c1cccc(Br)c1	9.4	-7.8	101.0	i	112.3	-3.1	1.11
Cc1ccc(S(=O)(=O)N2CCN(CC(=O)N/N=C\c3ccccn3)CC2)cc1	.	.	104.6	i	.	.	0.9
COc1cccc(C2C(C(N)=O)=C(C)Nc3nc(-c4ccccc4Cl)nn32)c1 (centres undefined)	.	-15.1	61.2	i	.	-0.2	1.04
CC[C@H](C)C(C(=O)N1CCN(C(=O)OC(C)(C)C)CC1)n1cc(C(CC(C)C)NC(=O)OC(C)(C)C)nn1 (some centres undefined)	.	12.7	104.5	i	.	.	0.83
O=C(N/N=C/c1ccc(-c2ccc([N+](=O)[O-])cc2)o1)c1cccnc1	.	.	97.3	i	.	.	1.15
COc1ccc(NC(=O)C(CC(=O)O)Cc2ccccc2)cc1 (centres undefined)	.	-8.2	106.0	i	.	-0.7	1
O=C(CSc1ncn[nH]1)c1ccc(OC(F)F)cc1	-58.3	-0.5	103.4	i	225.9	.	0.88
Cc1cnn(-c2ccc3nnc(-c4ccc(Br)cc4)n3n2)c1	.	-1.9	102.5	i	.	1.0	0.95
CC1=CCC2C(=O)N(c3cc(C)on3)C(=O)C2C1 (centres undefined)	-42.9	0.5	98.7	i	90.2	-1.1	0.94
CCn1nnnc1SCC(=O)Nc1cccc(NC(C)=O)c1	-29.4	-7.3	58.9	i	28.8	-1.0	0.99
CC(C)(C)c1ccc2c(c1)OCC(C(=O)O)O2 (centres undefined)	14.3	-3.1	98.5	i	89.3	-5.7	0.96
CS(=O)(=O)c1ccc(Cl)c(NC(=O)COC(=O)CNC(=O)c2ccc(Br)o2)c1	.	11.3	89.4	.	.	-0.5	.
CCOC(=O)C1=C(C)Nc2ncnn2C1c1ccccc1F (centres undefined)	18.8	2.3	102.7	i	46.9	-2.0	0.81
Cc1ccc(F)cc1NC(=O)CCOc1ccccc1	.	-0.8	101.3	i	.	.	0.93
CCC(=O)OC1c2ccccc2C(=O)N1Cc1ccccc1 (centres undefined)	.	-4.6	93.0	i	.	-1.6	0.97
CCCCCOc1ccc(NC(=O)c2cc(SC)ccc2Cl)cc1	-80.0	-10.3	107.0	i	144.2	0.2	0.78
COc1ccc(S(=O)(=O)N2CCN(c3ccccc3OC)CC2)cc1OC	-20.7	-4.7	101.5	i	111.1	-2.1	0.963
Cc1ccc(CS(=O)(=O)CCC(=O)N2CCOCC2)cc1	-21.9	0.8	99.0	i	69.0	-1.0	0.86
COc1cccc(NC(=O)c2nn(C)cc2Br)c1	43.8	4.0	.	i	102.5	-1.4	0.99
COc1ccccc1/C=C/C=N/N1CCN(Cc2cccc3ccccc23)CC1	.	9.1	102.2	.	.	-0.9	.
COc1ccc(OC)c(C2C(C(C)=O)=C(O)C(=O)N2Cc2cccnc2)c1 (centres undefined)	9.1	-5.0	96.8	i	82.0	-1.0	0.94
C/C=C(/C)C(=O)Nc1cccc(C2=NOC3(C2)C[C@H](C(N)=O)N(C(=O)c2ccc(Cl)cc2)C3)c1 (some centres undefined)	.	.	99.0	i	.	.	1.02
